Measles inh = inhibitors of measles virus growth in infected cells; infected Vero cells, GFP fluorescence, 64 h; hits give low values; z-score (no concentration beside the values); 33,000 tested, 0.1% active;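 active = z-score under -3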;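 also: score is relative to mean and SD of the compound wells of a plate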
* hit, by the source's call.

Preview (seven entries):
Molecule	Measles inh
CC(=O)Oc1c(O)ccc2c(C)cc(=O)oc12	0.08
CCCCCCCOC(=O)C1=C(C)Nc2ncnn2C1c1ccc(Br)cc1 (stereo not drawn)	2.5
O=c1nc(-c2ccc(Cl)cc2)c2ccccc2[nH]1	-0.35
COc1ccc(C(=O)Nc2cc(C(F)(F)F)ccc2Cl)cc1[N+](=O)[O-]	0.64
O=C1C(=O)N(CCN2CCOCC2)C(c2ccccc2F)/C1=C(\O)c1ccccc1 (stereo not drawn)	0.23
CCOC(=O)c1ccccc1NC(=O)Cn1c(=O)n(Cc2ccccc2)c(=O)c2c(C)c(C)sc21	-0.93
O=C(Nc1nccs1)C1COc2ccccc2O1 (stereo not drawn)	0.1

Results, from the start:
Molecule	Measles inh
CC(=O)Oc1c(O)ccc2c(C)cc(=O)oc12	0.08
CCCCCCCOC(=O)C1=C(C)Nc2ncnn2C1c1ccc(Br)cc1 (stereo not drawn)	2.5
O=c1nc(-c2ccc(Cl)cc2)c2ccccc2[nH]1	-0.35
COc1ccc(C(=O)Nc2cc(C(F)(F)F)ccc2Cl)cc1[N+](=O)[O-]	0.64
O=C1C(=O)N(CCN2CCOCC2)C(c2ccccc2F)/C1=C(\O)c1ccccc1 (stereo not drawn)	0.23
CCOC(=O)c1ccccc1NC(=O)Cn1c(=O)n(Cc2ccccc2)c(=O)c2c(C)c(C)sc21	-0.93
O=C(Nc1nccs1)C1COc2ccccc2O1 (stereo not drawn)	0.1
CCCCC(C(=O)Nc1ccc(C(=O)OC)cc1)N1C(=O)c2cccc([N+](=O)[O-])c2C1=O (stereo not drawn)	-0.87
O=C(NC1CCCC1)C1(S(=O)(=O)c2ccc(Cl)cc2)CC1	-0.77
COc1ccccc1Oc1ccc(S(=O)(=O)NC(C)C(=O)O)cc1 (stereo not drawn)	0.63
Cc1ccc(C(=O)COc2ccc(N3C(=O)C4CCC(C)CC4C3=O)cc2)cc1C (stereo not drawn)	0.38
COc1ccc(-n2c(C=Cc3c[nH]c4ccccc34)nc3ccc(I)cc3c2=O)cc1	1.6
CCOC(=O)c1ccc([N+](=O)[O-])o1	-0.39
COc1ccc(Cl)cc1Nc1nc(-c2cc3ccccc3oc2=O)cs1	-0.1
Cc1cc(Cl)c2nncn2n1	-0.11

Additional compounds follow:
Molecule	Measles inh
COc1ccc(NC(=O)CCS(=O)(=O)c2ccc(Br)cc2)cc1Cl	1.1
CCc1ccc(C(=O)CC2(O)C(=O)N(Cc3ccccc3Cl)c3ccccc32)cc1 (stereo not drawn)	0.67
O=c1c2oc3ccc(Cl)cc3c2nc2n1CCS2	-1.2
COc1ccc(NC(=O)CCS(=O)(=O)c2ccc(Br)s2)cc1	-0.59
CCOc1ccc(S(=O)(=O)Nc2ccc3c(c2)OCO3)c2cccnc12	0.6
Cc1ccc2c(C)nc(Nc3nc4c(c(=O)[nH]3)CCC4)nc2c1	-0.39
CCCS(=O)(=O)N1CCN(S(=O)(=O)c2ccccc2[N+](=O)[O-])CC1	0
O=C(CSc1nnc(CNC(=O)c2ccco2)o1)c1ccccc1	-0.2
O=C(O)CCCC(=O)N1CCN(c2ccc(F)cc2)CC1	1.7
Cc1ccc(S(=O)(=O)NC(CC(=O)O)c2ccccc2)cc1 (stereo not drawn)	0.99
CCC1SC2=NC(C)=C(C(=O)OC)C(c3ccc(OC)cc3)N2C1=O (stereo not drawn)	-0.75
CCOc1ccc(C(=O)Nc2c3c(nn2-c2ccc([N+](=O)[O-])cc2)CSC3)cc1	-1.6
COc1ccc(NS(=O)(=O)c2cnc[nH]2)cc1OC	0.72
CC(C)Nc1c([N+](=O)[O-])ccc2nonc12	-1.2
O=C(O)CCN1C(=O)c2ccc3c4c(ccc(c24)C1=O)C(=O)N(CCC(=O)O)C3=O	-1.7

Sorted by the number under Measles inh (smallest number first): 3 of the compounds above
| SMILES | Measles inh |
| --- | --- |
| O=c1c2oc3ccc(Cl)cc3c2nc2n1CCS2 | -1.2 |
| COc1ccc(NC(=O)CCS(=O)(=O)c2ccc(Br)s2)cc1 | -0.59 |
| CCc1ccc(C(=O)CC2(O)C(=O)N(Cc3ccccc3Cl)c3ccccc32)cc1 (stereo not drawn) | 0.67 |

(next part)
Molecule	Measles inh
Cc1sc2ncn(-c3ccc(I)cc3)c(=O)c2c1C	-0.51
COc1ccc(C2C(C(=O)Nc3cc(C)ccn3)=C(C)NC3=C2C(=O)CC(C)(C)C3)cc1 (stereo not drawn)	-0.44
Nc1ccc2nc(N)sc2c1	1.8
O=C1OC(c2ccc3c(c2)OCO3)N(C(=O)c2cc3ccccc3o2)c2ccccc21 (stereo not drawn)	-0.42
Cc1ccc(NC(=O)CCn2c(=S)oc3ccccc32)c(O)c1	1.7
CCCCC(=O)OCCN1C(=O)c2cccc3c(N4CCCCC4)ccc(c23)C1=O	1.7
O=C(Cn1cnc2sc3c(c2c1=O)CCCC3)NCCC(=O)Nc1ccc2c(c1)OCO2	-1.2
CCC(=O)N1CCc2cc(Br)cc(S(=O)(=O)Nc3cc(C)ccc3OC)c21	-0.99
COc1ccc(C)cc1S(=O)(=O)N1CCN(C23CC4CC(CC(C4)C2)C3)CC1	-0.24
CCc1ccccc1N(C)S(=O)(=O)c1ccc2[nH]cc(C(=O)N3CCc4ccccc43)c(=O)c2c1	0.4
O=C(NCc1ccccn1)c1cc(=O)[nH]c2ccc(Br)cc12	-0.87
CS(=O)(=O)c1ccc2nc(NC(=O)Cc3ccc(F)cc3)sc2c1	0.78
COCCNC(=O)c1cc2n(n1)C(C(F)(F)F)CC(c1ccc(Cl)cc1)N2 (stereo not drawn)	-0.3
Cc1ccc(C)c(Cn2c(CCNC(=O)Cc3ccccc3)nc3ccccc32)c1	-0.56
O=S(=O)(c1ccc(Cl)cc1)N1CCN(S(=O)(=O)c2ccc3ccccc3c2)CC1	1.2

More records:
Molecule	Measles inh
O=C(NCCN1CCOCC1)c1c[nH]c2ccc(S(=O)(=O)Nc3ccccc3F)cc2c1=O	0.34
Cc1ccccc1Cn1c(C(C)NC(=O)c2ccc(F)cc2)nc2ccccc21 (stereo not drawn)	-0.37
Cc1ccc(S(=O)(=O)N=C(c2ccc(Cl)cc2)N(C)C)cc1	0.24
Cc1ccc(CSCC(=O)N2CCN(c3ccccc3F)CC2)cc1	1.7
Cc1cccc(C)c1NC(=O)c1sc2[nH]c(=O)c(C(=O)O)cc2c1N	-0.83
CCC1(C)OC(=O)N2CCc3ccccc3C21C (stereo not drawn)	-0.37
CCOc1ccccc1C(=O)Nc1sc(C)c(C)c1C(=O)OC	-0.25
COc1ccccc1N1CCN(C(=O)c2ccc3c(=O)n(Cc4ccc(Cl)cc4)c(=S)[nH]c3c2)CC1	1
CC1=C(C(=O)OCCc2ccccc2)C(c2ccc(Cl)cc2)C2=C(CC(C)(C)CC2=O)N1 (stereo not drawn)	-0.7
CC(NS(=O)(=O)c1cccc(C(F)(F)F)c1)C(=O)O (stereo not drawn)	-0.33
COc1ccc(C2=NN(C(=O)c3cccc([N+](=O)[O-])c3)C(c3cccc([N+](=O)[O-])c3)C2)cc1 (stereo not drawn)	-0.59
O=C(NC1CCCCC1)c1ccccc1C(=O)NC1CCCCC1	-0.39
Cc1c(C(=O)NCCc2ccccc2)oc2ccc(S(=O)(=O)N3CCCC3)cc12	-0.83
Cc1ccc(Cn2nc(C)c(NC(=O)c3cc(-c4ccco4)on3)c2C)cc1	1.4
COc1ccc(C2C=C(C)Nc3nc(SC)nn32)cc1 (stereo not drawn)	0.28

The listing continues.
Molecule	Measles inh
CCOC(=O)CCC(=O)Nc1ccc(C(N)=O)cc1	-0.48
CCOC(=O)Cc1csc(NC(=O)c2ccc(S(=O)(=O)N3CCCCC3)cc2)n1	1.2
O=C(Nc1nc2ccccc2s1)c1cccc(C(Cl)(Cl)Cl)c1	3.1
COc1ccc2nc(NC(=O)CNS(=O)(=O)c3cccs3)sc2c1	-0.05
COc1ccccc1Cn1c(=S)[nH]c2cc(C(=O)N3CCc4ccccc4C3)ccc2c1=O	-0.35
COC(=O)c1cc(NC(=O)c2ccc(N3CCCCC3c3cccnc3)c([N+](=O)[O-])c2)cc(C(=O)OC)c1 (stereo not drawn)	-2.1
Cc1ccc(NC(=O)N(CCCN2CCOCC2)Cc2cccs2)cc1C	-0.8
O=C(NCCc1ccccc1)c1ccc2nc3ccccc3c(=O)n2c1	1.2
CCSc1nnc2c(n1)OC(c1ccccc1F)Nc1ccccc1-2 (stereo not drawn)	-0.4
CN(C)S(=O)(=O)c1ccc(/C(O)=C2\C(=O)C(=O)N(Cc3cccnc3)C2c2ccc(Cl)cc2)cc1 (stereo not drawn)	-0.84
CCCCCc1ccc(C(=O)CCN(C)C)cc1	-1.3
CC1(C)C(=O)N(Cc2ccccc2)c2ccccc2N1C(=O)c1ccc(Br)cc1	-4*
Nc1cccc(NC(=O)c2cccs2)c1	0.39
COc1ccc(-c2n[nH]c3c2C(c2ccc(OC)cc2OC)N(c2ccc(Br)cc2)C3=O)cc1 (stereo not drawn)	-0.92
O=C1CC(c2ccc(F)cc2)CC2=C1C(c1ccc([N+](=O)[O-])o1)Nc1ccccc1N2 (stereo not drawn)	-0.39

Next section.
Molecule	Measles inh
CCOC(=O)CN(Cc1ccccc1F)S(=O)(=O)c1ccc(Cl)cc1	0
Cn1c(C(=O)N2CCCCC2)cc2c(=O)[nH]c3ccccc3c21	1.9
COc1ccc2nc(NC(=O)CNC(=O)c3nn(-c4ccc(OC)c(Cl)c4)c(=O)c4ccccc34)sc2c1	2.7
O=C1CC(Sc2ccc(Cl)cc2)C(=O)N1c1ccc(Br)cc1 (stereo not drawn)	-1.9
CC(C)=CCOc1cc(C)cc2oc(=O)cc(-c3ccccc3)c12	0.29
CCOC(=O)C1=C(C)N(c2ccccc2)C(C)=C(C(=O)OCC)C1c1ccc(Br)cc1	-0.62
CCOC(=O)c1ccc2ncc(C(=O)OCC)c(Nc3cccc(OC)c3)c2c1	1.3
CCCNC(=O)c1cc(=O)n(Cc2ccc(Cl)cc2)c2ccccc12	-0.64
COc1ccc(C(=O)N2CC(=O)Nc3ccc(Cl)cc3C2c2ccc(F)cc2)cc1OC (stereo not drawn)	-0.2
COc1ccc(N2C(=O)CC(Cc3ccc(Cl)cc3)C2=O)cc1 (stereo not drawn)	0.57
O=C(NCc1ccccc1Cl)c1ccc2nc3cc(Cl)ccc3c(=O)n2c1	-0.11
CCOC(=O)c1c(C)oc2c1c(C(c1ccc(Cl)cc1)N1CCOCC1)c(O)c1ccccc12 (stereo not drawn)	-0.44
CC1(C)CC(C)(c2ccc(Cl)cc2)c2ccccc2N1 (stereo not drawn)	-0.75
O=C(NCc1ccccn1)c1ccc2c(=O)n(Cc3ccc(Cl)cc3)c(=S)[nH]c2c1	-0.95
O=C(CSc1nnc(-c2ccccc2F)o1)N1CCOCC1	0.72

The results go on:
Molecule	Measles inh
O=C(NCCCn1ccnc1)c1cc(-c2ccc3c(c2)OCO3)on1	-1.2
CC1(C)CC(=O)c2cc(C(=O)N3CCN(c4cccc(C(F)(F)F)c4)CC3)c(=O)n(-c3ccc(Cl)cc3)c2C1	-0.65
O=C(CN1C(=O)c2ccccc2Sc2ccc(C(=O)N3CCCC3)cc21)NCCC1=CCCCC1	-1.3
CCCCNC(=O)c1nn(-c2ccc(C)cc2)c(=O)c2c1c1ccccc1n2C	0.4
Cc1ccccc1NC(=O)c1cccc(C(=O)Nc2ccccc2C)c1	-0.13
COc1ccc(S(=O)(=O)N2CCN(C(=O)c3ccco3)CC2)cc1	1.2
COc1ccc2cc(C(=O)NC(C)=O)c(=Nc3ccc(F)cc3)oc2c1	0.79
CC(=O)C1=C(O)C(=O)N(CCc2ccccc2)C1c1ccc(F)cc1 (stereo not drawn)	0.6
CCC(C)Nc1nc2c(C)cccn2c(=O)c1C=Nc1ccc(OC)cc1 (stereo not drawn)	-0.5
C=C(C)n1c(=O)[nH]c2c([N+](=O)[O-])cccc21	-0.48
COc1ccc2nc(NC(=O)CSc3nc4ccccc4n3C(C)=O)sc2c1	0.08
Cc1ccc(NC(=O)NC(=O)N(c2ccc(Cl)cc2)S(C)(=O)=O)cc1	0.54
CCOC(=O)c1c(N)sc2c(N)cccc12	-0.41
CCOc1cc2c(C(=O)Nc3ccc4c(c3)OCO4)cn(CC(C)C)c(=O)c2cc1OCC	0.71
NS(=O)(=O)c1ccccc1NC(=O)c1c(O)c2cccc3c2n(c1=O)CC3	0.16

(listing goes on)
Molecule	Measles inh
COC(=O)C1=CNC=C(C(=O)OC)C1c1ccc(O)c(OC)c1	-0.41
COc1ccc(CC2=NS(=O)(=O)c3ccccc3N2)cc1OC	-1
Cc1ccc(-n2c(SCC(=O)NCc3cccs3)nc3[nH]ncc3c2=O)cc1Cl	3.2
O=C(CSC1CC(=O)N(c2ccccc2)C1=O)Nc1ccc(F)cc1 (stereo not drawn)	-0.59
COc1ccc(C2C=C(c3ccc(I)cc3)Nc3nnnn32)cc1 (stereo not drawn)	-0.59
CCS(=O)(=O)N1CCCC(C(=O)NCCc2ccc(OC)c(OC)c2)C1 (stereo not drawn)	0.45
COc1cccc2cc(C(=O)NCCCN3CCOCC3)c(=O)oc12	1.1
Cc1cc(=O)n(C)c(=O)n1CCCCNCCO	0.5
COc1cc(-c2cc(C(F)(F)F)n3ncc(C(=O)Nc4cccnc4Cl)c3n2)cc(OC)c1OC	0.16
CCCc1ccc(-c2ccc(C(=O)OCc3ccco3)cc2)nc1	0.63
Cc1ccc(C(=O)C(C)OC(=O)c2ccc3c(c2)C(=O)N(C2CCCCC2)C3=O)cc1 (stereo not drawn)	0.22
Cc1nn(S(=O)(=O)c2ccccc2)c(-c2ccccc2)c1Sc1ccccc1	-0.09
COc1ccc(C2C(=O)N(C3CCCCCC3)CC(=O)N2Cc2ccc3c(c2)OCO3)cc1 (stereo not drawn)	-0.77

Screening results as filed in PubChem.

These rows are one share of the data; count on the stated rates, not on these rows.
